High-throughput results as filed in PubChem.
D2 ag: Beta-Arrestin HTS for Positive Allosteric Modulators of the Human D2 Dopamine Receptor: Agonists. D(2) dopamine receptor (Homo sapiens), P14416. DiscoveRx PathHunter D2 beta-arrestin, luminescence, 90 min; 100% = 57 uM dopamine signal. activation, % (concentration not given with the values). 360,000 compounds, 0.084% hits; in the data active = activation above about 40%; inconclusive = about 15% to 40%; inactive = below about 15%; further: the text of the record calls up to 30% inactive
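Agonist mode: compounds alone added to overnight-plated D2 PathHunter cells for 90 min at 37 C, with 57 uM final dopamine (EC100) defining full response. Beta-arrestin recruitment detected by chemiluminescent reagent, read after 1 h at ambient temperature.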
Six1-Eya2 inh: qHTS Assay for Inhibitors of the Six1/Eya2 Interaction; Homeobox protein SIX1 (Homo sapiens) + Protein phosphatase EYA2 (Homo sapiens), …; AlphaScreen GST-Six1/His-Eya2 binding, biochemical; active compounds read low; control for the full effect not named in the record; activity change, % (concentration not given with the values); 360,000 compounds, 0.56% hits; AID 651725, 2012; in the data active = activity change below about -65%; inconclusive = about -30% to -65%; inactive = above about -30%; further: on the % scale 0 is the no-effect control and ±100 the full control effect
Target sequence (O00167 whole entry, looked up): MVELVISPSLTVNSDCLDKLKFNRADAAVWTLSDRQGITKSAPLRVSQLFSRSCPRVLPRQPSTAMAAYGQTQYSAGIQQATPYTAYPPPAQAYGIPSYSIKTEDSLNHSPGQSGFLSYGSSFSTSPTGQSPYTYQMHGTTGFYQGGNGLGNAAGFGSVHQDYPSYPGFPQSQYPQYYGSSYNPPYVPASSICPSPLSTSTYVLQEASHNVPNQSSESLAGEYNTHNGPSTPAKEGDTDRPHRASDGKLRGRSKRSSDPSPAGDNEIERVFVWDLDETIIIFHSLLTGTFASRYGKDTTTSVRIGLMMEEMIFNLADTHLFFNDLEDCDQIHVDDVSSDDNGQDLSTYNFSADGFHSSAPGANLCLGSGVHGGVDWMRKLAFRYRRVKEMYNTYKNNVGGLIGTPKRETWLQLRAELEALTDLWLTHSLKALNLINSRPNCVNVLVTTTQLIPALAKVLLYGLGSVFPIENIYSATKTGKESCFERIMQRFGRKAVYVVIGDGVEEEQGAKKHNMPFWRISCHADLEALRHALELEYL
Target sequence (Q15475 whole entry, looked up): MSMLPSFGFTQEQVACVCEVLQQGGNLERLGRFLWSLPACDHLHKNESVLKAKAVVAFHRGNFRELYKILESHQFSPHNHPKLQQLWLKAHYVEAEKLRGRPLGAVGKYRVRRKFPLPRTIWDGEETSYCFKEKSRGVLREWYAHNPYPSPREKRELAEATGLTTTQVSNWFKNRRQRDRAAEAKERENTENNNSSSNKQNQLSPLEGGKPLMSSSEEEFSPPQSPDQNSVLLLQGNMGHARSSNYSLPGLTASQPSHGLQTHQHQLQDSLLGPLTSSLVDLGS
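Homogeneous AlphaScreen proximity assay pairing GST-Six1 with His-tagged Eya2 (added as 5X mix: 250 nM and 500 nM) in 50 mM Tris pH 8.0, 300 mM NaCl, 1 mM TCEP. Glutathione donor and nickel acceptor beads; 1 h, 37 °C, dark.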
PINK1 expr mod: A Quantitative High throughput Screen to Identify Chemical Modulators of PINK1 Expression; PINK1 immunofluorescence, high-content cytometry, 24 h; Potency, µM (series often up to 76.6 µM), for inactives: top-dose activation (PINK1 increase), usual class: activators; 410,000 compounds, 0.2% hits; AID 624263, 2012; active = well fitted activation curve with a large enough effect; inconclusive = small, poorly fitted or top-dose-only effect; inactive = flat fitted curve, though single readings scatter; cell line not stated here;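 further: potency means the concentration at half of the fitted maximal effect; % of control where 0% means no effect; nearly all actives have a fitted effect of over 65% in size; a mitochondrial uncoupler was the plate control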
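Stable cell line treated 24 h with compounds at 5 concentrations (CCCP controls), then fixed and immunostained for PINK1 plus nuclear and cell stains; PINK1 immunofluorescence quantified by laser-scanning microplate cytometry.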
D2 PAM: Beta-Arrestin HTS for Positive Allosteric Modulators of the Human D2 Dopamine Receptor: Potentiators; 360,000 compounds, 0.23% hits; DiscoveRx D2 beta-arrestin cells, luminescence, 90 min; 100% = 57 uM dopamine signal; AID 624464, 2012; potentiation, % (concentration not given with the values); D(2) dopamine receptor (Homo sapiens), P14416; active = potentiation of 50% or more; inconclusive = 30% to 50%; inactive = 30% or less;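 further: tested on top of an EC20 dose of dopamine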
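D2 cells co-treated with compound plus 50 nM dopamine (EC20) for 90 min at 37 deg C to detect potentiation. Beta-arrestin recruitment was read as enzyme-fragment luminescence after 1 h at ambient temperature. Full response was set by 57 uM dopamine.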
CtBP-E1A inh: qHTS Assay for Inhibitors of the CtBP/E1A Interaction. CtBP / adenovirus E1A interaction (AlphaScreen). AlphaScreen GST-E1A/His-CtBP binding, 1536-well; active compounds read low; control for the full effect not named in the record. activity change, % (no concentration beside the values). 340,000 compounds, 0.49% hits. AID 651724, 2012; in the data active means activity change below about -65%; inconclusive means about -30% to -65%; inactive means above about -30%; further: on the % scale 0 is the no-effect control and ±100 the full control effect
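In 5 uL wells, 23 nL compound meets equimolar GST-E1A and His-CtBP (5X stock 125 nM each) for 2 h, 37 °C. Beads (5X, 50 ug/mL) then 1 h, 37 °C, dark.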
TRPML1 agonist: qHTS for Agonists of the Human Mucolipin Transient Receptor Potential 1 (TRPML1) | Mucolipin-1 (Homo sapiens), Q9GZU1 | TRPML1-expressing cells, Ca2+ dye fluorescence, FDSS; host cell line not named in the record; reference of the full effect not given here | activation, % (concentration not given with the values) | 410,000 compounds, 0.12% hits | AID 624414, 2012; in the data active = activation above about 50%; inconclusive = about 30% to 50%; inactive = below about 30%; further: 0% is about no effect; the text of the record puts the active cut at 80%
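Cells: TRPML1-DL, 1X Tet inducer, ~16 h at 37 degrees C/5% CO2. Dye: ABD Ca8 no-wash + quencher, 45-90 min RT. Read: 10 s baseline, compound add, 110 s agonist phase; 54-4 EC80 (4uM final), 110 s antagonist phase.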
* hit, by the source's call; ? = inconclusive; . = not tested or not shown; [ ] = another dose, or the depositor's remark.

The opening eleven entries (preview)
#	Molecule	D2 ag	Six1-Eya2 inh	PINK1 expr mod	D2 PAM	CtBP-E1A inh	TRPML1 agonist
1	COc1ccc(NC(=O)C2CCCN2S(=O)(=O)c2cccs2)c([N+](=O)[O-])c1 (configuration not stated)	0.7	-9	1.9%	1	-3	-0.8
2	CCOC(=O)Cc1csc(NS(=O)(=O)Cc2ccccc2)n1	-2.2	5	-1.9%	-4	4	0.0
3	CCCS(=O)(=O)N1CCCC(C(=O)c2ccccc2OC)C1 (configuration not stated)	-4.6	11	0.6%	-3	-2	-0.1
4	COc1ccc(-c2nc(C)ncc2N=Nc2ccccc2)cc1	0.6	?	9.1%	-8	?	2.2
5	COCCN(C(=S)Nc1ccc(C(C)C)cc1)C(C)c1cccs1 (configuration not stated)	1.7	2	3.3%	-11	3	-0.3
6	COc1cc(NC(=O)COC(=O)c2cnc(C)cn2)c(C)cc1[N+](=O)[O-]	-1.0	1	-0.6%	-3	.	0.3
7	CC(=O)c1ccc(-c2ccc(C(=O)NC3CC(C)(C)NC(C)(C)C3)o2)cc1	-2.7	-18	2.7%	-19	-8	-0.7
8	CCN(C(=O)COC(=O)C1CC1)c1c(N)n(Cc2ccccc2)c(=O)[nH]c1=O	-1.4	3	-1.3%	-1	-21	0.2
9	Cc1cc(Cl)ccc1OCC(=O)NCCCN1CCOCC1	-5.5	5	-0.9%	-10	4	0.7
10	Cc1oc2ccc(OCc3ccc(F)cc3)cc2c1C(=O)O	-0.2	11	0.3%	-5	16	-0.1
11	CCN(CC)S(=O)(=O)c1ccc2c(c1)N(CC(=O)NCc1ccccn1)C(=O)CO2	-1.4	2	1.7%	-11	-6	.

All compounds of this part, from the first entry:
#	Molecule	D2 ag	Six1-Eya2 inh	PINK1 expr mod	D2 PAM	CtBP-E1A inh	TRPML1 agonist
1	COc1ccc(NC(=O)C2CCCN2S(=O)(=O)c2cccs2)c([N+](=O)[O-])c1 (configuration not stated)	0.7	-9	1.9%	1	-3	-0.8
2	CCOC(=O)Cc1csc(NS(=O)(=O)Cc2ccccc2)n1	-2.2	5	-1.9%	-4	4	0.0
3	CCCS(=O)(=O)N1CCCC(C(=O)c2ccccc2OC)C1 (configuration not stated)	-4.6	11	0.6%	-3	-2	-0.1
4	COc1ccc(-c2nc(C)ncc2N=Nc2ccccc2)cc1	0.6	?	9.1%	-8	?	2.2
5	COCCN(C(=S)Nc1ccc(C(C)C)cc1)C(C)c1cccs1 (configuration not stated)	1.7	2	3.3%	-11	3	-0.3
6	COc1cc(NC(=O)COC(=O)c2cnc(C)cn2)c(C)cc1[N+](=O)[O-]	-1.0	1	-0.6%	-3	.	0.3
7	CC(=O)c1ccc(-c2ccc(C(=O)NC3CC(C)(C)NC(C)(C)C3)o2)cc1	-2.7	-18	2.7%	-19	-8	-0.7
8	CCN(C(=O)COC(=O)C1CC1)c1c(N)n(Cc2ccccc2)c(=O)[nH]c1=O	-1.4	3	-1.3%	-1	-21	0.2
9	Cc1cc(Cl)ccc1OCC(=O)NCCCN1CCOCC1	-5.5	5	-0.9%	-10	4	0.7
10	Cc1oc2ccc(OCc3ccc(F)cc3)cc2c1C(=O)O	-0.2	11	0.3%	-5	16	-0.1
11	CCN(CC)S(=O)(=O)c1ccc2c(c1)N(CC(=O)NCc1ccccn1)C(=O)CO2	-1.4	2	1.7%	-11	-6	.
12	NC(=O)CC(NC(=O)Cc1ccc(Br)cc1)c1ccc(NCCc2cccc(F)c2)c([N+](=O)[O-])c1 (configuration not stated)	-2.8	-5	0.2%	-4	0	0.1
13	CS(=O)(=O)N(CC(=O)NCC1CCCO1)c1ccc(Cl)c(Cl)c1 (configuration not stated)	-1.2	2	.	5	10	1.1
14	Cc1ccc2c(CSc3nc4ccccc4c(=O)n3CCCO)cc(=O)oc2c1C	-0.9	-22	0.6%	9	-21	-0.3
15	COc1ccc(C(c2nnnn2C(C)(C)C)N2CCN(C)CC2)cc1OC (configuration not stated)	-0.3	8	-1.0%	-4	10	0.4
16	O=C(CN1C(=O)NC2(CCCC2)C1=O)Nc1cc(Cl)ccc1N1CCCCC1	-3.0	1	-2.4%	15	4	1.1
17	Nc1nc(SC2c3cccc4cccc(c34)C2NS(=O)(=O)c2ccccc2)n[nH]1 (configuration not stated)	-2.5	-8	3.2%	-25	-8	2.3
18	COc1ccc(CN(C(=O)c2ccco2)C2CC(C)N(C)CC2C)cc1 (configuration not stated)	-1.8	3	-0.6%	-14	4	-0.6
19	CCCCN(CC)CCNC(=O)C1c2cc(OC)c(OC)cc2C(=O)N2CCc3ccccc3C12 (configuration not stated)	-1.8	3	-0.5%	-19	2	0.9
20	CC(C)(C)NC(=O)NC(=O)C[n+]1ccc(Cc2ccc([N+](=O)[O-])cc2)cc1	9.6	0	-0.3%	8	2	-0.3

#	Molecule	D2 ag	Six1-Eya2 inh	PINK1 expr mod	D2 PAM	CtBP-E1A inh	TRPML1 agonist
21	O=C(O)c1ccccc1-c1ccccc1C(=O)Nc1ccc2oc(=O)c3ccccc3c2c1	-4.2	?	-0.2%	-10	-6	-0.7
22	CC(C)(C)c1ccc(OCCC(=O)Nc2cccc(S(=O)(=O)N3CCCCC3)c2)cc1	1.1	-2	-2.2%	0	10	0.6
23	C(=NOCCc1ccccc1)c1ccncc1	-1.8	18	-0.4%	-38	-10	0.5
24	Cc1cc2nnc(SCC(=O)OC(C)C)n2c2ccccc12	-2.9	-11	-4.9%	-22	-11	1.3
25	CC(C)Cn1c(O)c(/C=C2\C=NN=C2c2ccccc2)sc1=S	-2.4	?	-1.6%	-7	?	-0.5
26	O=C1NN(c2ccc(Cl)c(Cl)c2)C(=O)/C1=C/c1ccc(-c2ccccc2C(=O)O)o1	-6.8	?	0.0%	-5	-72*	0.7
27	CN1C(=S)SC(/[N+]([O-])=C/c2ccc(Cl)cc2)C1(C)C (configuration not stated)	-1.7	1	-0.3%	-2	3	0.8
28	Cc1cc(Cl)cc(Br)c1OCCCN1C(=O)NC(C)(C)C1=O	-1.2	5	?	-2	3	-1.1
29	CCOC(=O)C1CCN(C(=O)c2cc(S(=O)(=O)N3CCOCC3)c(Cl)cc2Cl)CC1	-0.6	1	0.5%	-12	3	1.1
30	COc1ccc(C2=Nn3c(nnc3-c3ccncc3)SC2)cc1OC	-0.8	?	-2.5%[38.3 µM]	-14	?	0.0
31	O=C(NCCN1CCOCC1)c1ccc(CS(=O)(=O)c2ccc(Cl)cc2)o1	-0.3	4	2.9%	-9	-3	-0.4
32	Cc1ccc(-c2nc3ccccc3s2)cc1NC(=S)NC(=O)c1ccccc1	-1.6	0	3.5%	-1	1	-0.1
33	O=C(NCc1ccco1)c1c[nH]c2ccc(S(=O)(=O)N3CCOCC3)cc2c1=O	-0.3	-13	1.3%	5	-21	-0.8
34	Cc1ccc(C(=O)Oc2ccc(/C=N/NC(N)=O)cc2)cc1	5.0	-7	1.2%	-23	.	4.0
35	CCc1cccc(OCCCCNCCO)c1	-1.7	9	-2.3%	-13	13	-0.7
36	Cc1cccn2c(=O)c(/C=C(\C#N)S(=O)(=O)c3ccccc3)c(N3CCCCC3)nc12	-1.2	-17	0.7%	-3	-9	3.6
37	CC(C)CN(C(=O)COC(=O)c1c2c(nc3ccccc13)CCC2)c1c(N)n(Cc2ccccc2)c(=O)[nH]c1=O	-0.4	-5	7.7%	-4	-9	1.2
38	CCCn1nc(C(=O)Nc2cc(OCC)c(N3CCOCC3)cc2OCC)c2ccccc2c1=O	0.1	-4	5.4%	1	-11	0.3
39	Cc1ccc(NC(=O)COC(=O)c2ccc(CN3CCCC3=O)cc2)c(Cl)c1	7.3	5	3.9%	11	0	0.9
40	Cc1cc(/C=C2\C(=N)N3N=C(C(C)C)SC3=NC2=O)c(C)n1Cc1ccccc1	-2.6	3	1.9%	1	3	0.7

Short forms: A = D2 ag; B = Six1-Eya2 inh; C = PINK1 expr mod; D = D2 PAM; E = CtBP-E1A inh; F = TRPML1 agonist
(41) Cc1ccc(C(=O)C2C(=O)c3ccccc3C2=O)cc1
  A = -3.0; B = -1; C = .; D = -23; E = 8; F = -0.3

(42) Cc1ccc(CN(C)C(=O)c2cccc(S(=O)(=O)N3CCN(c4ccccc4)CC3)c2)cc1
  A = 3.1; B = -21; C = 0.7%; D = -1; E = -6; F = 1.6

(43) C=CCOc1cccc(C2C(C(=O)c3ccc(C)o3)=C(O)C(=O)N2c2nccs2)c1 (configuration not stated)
  A = -3.9; B = -5; C = 1.5%; D = 0; E = -1; F = 6.7

(44) CCCCN=C1CC(C)(C)CC(=O)/C1=C(/O)CCCN1C(=O)c2ccccc2C1=O
  A = -0.8; B = 6; C = 0.5%; D = -3; E = 9; F = 2.0

(45) CCCN1CCN(C(=O)C2CCN(S(=O)(=O)c3c(C)noc3/C=C/c3ccc(C)cc3)CC2)CC1
  A = -4.7; B = -15; C = -0.2%; D = -5; E = -28; F = 1.1

(46) CC(C)(C)c1nnc(NC(=O)Cc2ccc(Br)cc2)s1
  A = -2.0; B = 1; C = 5.0%; D = -5; E = -2; F = 0.8

(47) CCOC(=O)CN(C(=O)CNC(=O)c1ccco1)C(C(=O)NC1CCCCC1)c1cccnc1 (configuration not stated)
  A = 5.3; B = 13; C = 1.1%; D = -5; E = 8; F = 0.7

(48) Nc1[nH]c(C(=O)c2ccccc2)c(-c2ccc(Cl)cc2Cl)c1C(=O)c1ccc(Br)cc1
  A = .; B = 0; C = 1.8%; D = .; E = -2; F = -0.2

(49) C[C@]12c3[nH]c4ccc(Cl)cc4c3CCN1C(=O)[C@@H](CC(=O)NCCC1=CCCCC1)C[C@@H]2C(=O)N1CCCCC1
  A = -2.7; B = -1; C = 2.3%; D = 2; E = 3; F = -0.3

(50) COc1ccc(C(=O)C(OC(=O)CNC(=O)c2ccco2)c2ccccc2)cc1 (configuration not stated)
  A = -1.3; B = 3; C = 0.9%; D = 8; E = 0; F = 0.3

Short forms: A = D2 ag; B = Six1-Eya2 inh; C = PINK1 expr mod; D = D2 PAM; E = CtBP-E1A inh; F = TRPML1 agonist
(51) COC(=O)c1cc(-c2cccc(OC)c2)n[nH]1
  A = -1.3; B = 13; C = 0.2%; D = -25; E = 0; F = 0.5

(52) CC(=O)c1c(-c2ccc(Cl)cc2)c2ccccc2[nH]c1=O
  A = 2.1; B = -2; C = -2.2%; D = -8; E = 0; F = 1.0

(53) CNS(=O)(=O)c1cn(CC(=O)NCc2cccc(OC)c2)cc1S(=O)(=O)NC
  A = -0.4; B = 10; C = 2.3%; D = -1; E = 5; F = 0.9

(54) COc1cc(OC)c(-c2nn3c(-c4ccco4)nnc3s2)cc1OC
  A = -4.4; B = ?; C = 1.1%; D = -33; E = ?; F = -0.7
